# Bioassay records from PubChem BioAssay.
# Ecoli rRNA inh: reduced GFP signal of wild-type E. coli, primary screen, bacterial rRNA inhibitor project, GFP/RFP fluorescence, OD600, single point; E. coli WT GFP vs humanized-ribosome RFP mutants, 24 h; stronger effect = lower value; DMSO median 0, no signal -100; GFP signal change (wild-type ribosome), % (no concentration beside the values); 1.6% of 350,000 active;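 active = significant combined selectivity score with lowered wild-type GFP, culture density cut under 30%, mutant RFP and density less affected; inactive = any of these conditions unmet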; also: one replicate is shown; some compounds called inactive have numbers as strong as hits
# ALR inh: inhibitors of human ALR sulfhydryl oxidase, primary screen, biochemical, H2O2 detection, HRP-luminol luminescence, single point; purified ALR, DTT oxidation; FAD-linked sulfhydryl oxidase ALR (Homo sapiens), P55789; 3.8% of 290,000 active; AID 485317, 2010; inhibition, % (no concentration beside the values);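 active = mean and each replicate at 75% or more; inconclusive = only one of the two met; inactive = neither met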;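 also: stock transfer was 7.5 nL into about 7.5 µL; 0% = neutral wells and 100% = wells with inactivated enzyme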
# Target sequence (P55789 whole entry, looked up): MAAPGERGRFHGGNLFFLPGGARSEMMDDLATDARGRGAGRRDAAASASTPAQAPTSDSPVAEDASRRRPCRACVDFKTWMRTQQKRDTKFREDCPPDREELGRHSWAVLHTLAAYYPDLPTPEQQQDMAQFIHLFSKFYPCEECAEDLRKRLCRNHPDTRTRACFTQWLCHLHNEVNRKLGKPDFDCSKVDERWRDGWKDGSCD
# Beta apoptosis: inhibitors of cytokine-induced beta cell apoptosis, primary screen, luminescence; INS-1E cytokine-induced death, ATP luminescence, 48 h; percent of positive-control rescue, neutral wells zero; protection from apoptosis, % (concentration not given with the values); 0.8% of 300,000 active; AID 435005, 2010;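 active = all replicates at 75% or more, or half of them and the mean; inconclusive = half reach 75% but not the mean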;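 also: 0% = cytokine-treated negative control wells and 100% = positive control rescue; higher means more ATP so stronger rescue from cytokine killing; wells of about 40 µL received 100 nL stock; the first replicate is given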
# T cruzi repl: inhibitors of intracellular T. cruzi growth, primary screen, luminescence, NIH3T3 host cells | T. cruzi beta-gal in NIH3T3, 90 h | inhibition, % (no concentration beside the values) | 1.4% of 300,000 active;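 active = mean inhibition across valid replicates above about 55%, limit read from the data; inconclusive = mean below that limit but half or more replicates reach it; inactive = mean below it, under half of replicates reach it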;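 also: signal also drops with host cell toxicity which is not excluded here; 0% = plate median of DMSO wells and 100% = zero luminescence signal; higher percent means less beta-gal luminescence so fewer parasites; stock transfer was 50 nL into about 50 µL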
# LANA-H2B inh: blockers of LANA interaction with H2A/H2B – biochemical, FP readout, HTS, primary screen; inhibition, % (concentration not given with the values); 0.6% of 320,000 active; Protein LANA1 (Human herpesvirus 8 type P (isolate GK18)), Q9QR71; cell-free LANA-H2A/H2B peptide, fluorescence polarization; in the data active = inhibition mostly above about 10%, no sharp cut-off; inactive = mostly below about 6.7%;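 also: stock transfer was 7.5 nL into about 10 µL; 0% = median of vehicle wells and 100% = median of positive control wells; one replicate is shown; the record names a cut of 25% in any replicate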
# Beta2AR agonist: beta2AR agonists driving receptor internalization, primary screen, cell-based, FAP fluorogen, flow cytometry | Am2.2-beta2AR cells; reference of the scale not given here | Beta-2 adrenergic receptor (Homo sapiens), P07550 | AID 504454, 2011 | 0.43% of 340,000 active | response, % (test concentration not listed);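 active = response above a set limit, near 3 SD of response in nonfluorescent compounds, cut at about 42% in these data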;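 also: stock transfer was 100 nL into about 11 µL; a reference agonist was the positive control; negative values mostly stem from fluorescent compounds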
# Target sequence (P07550 whole entry, looked up): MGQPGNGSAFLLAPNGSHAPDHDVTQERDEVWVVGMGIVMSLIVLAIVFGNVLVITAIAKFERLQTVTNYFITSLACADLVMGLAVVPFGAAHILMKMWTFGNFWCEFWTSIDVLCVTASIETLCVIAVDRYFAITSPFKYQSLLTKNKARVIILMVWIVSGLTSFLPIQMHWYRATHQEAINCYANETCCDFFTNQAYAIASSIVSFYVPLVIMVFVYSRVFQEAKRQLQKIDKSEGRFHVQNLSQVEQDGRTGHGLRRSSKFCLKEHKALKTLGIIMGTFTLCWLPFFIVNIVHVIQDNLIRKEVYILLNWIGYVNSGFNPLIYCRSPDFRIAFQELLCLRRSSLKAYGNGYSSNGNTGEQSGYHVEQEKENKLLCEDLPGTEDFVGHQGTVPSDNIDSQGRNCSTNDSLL
# A1 inh: caspase 3/7 activation in MEF A1-2A-BIM cells, primary screen, A1 inhibitor project, cell-based, luminescence, HTS; Caspase-Glo 3/7 luminescence, 3 h; percent of clofoctol response, vehicle zero; caspase activation, % (concentration not given with the values); 0.066% of 330,000 active; AID 2462, 2010;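 active = over half of replicate activation scores above 10%, or exactly half above 10 with the replicate mean above 10; inconclusive = replicate mean below 10 yet half the replicates above 10; inactive = over half of replicates below 10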;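 also: wells of about 30 µL received 50 nL stock; many hits fall short of the cut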
# Calb FLC: C. albicans growth inhibition with fluconazole, primary screen, CaCi-2 strain, Alamar Blue fluorescence | C. albicans CaCi-2 (fluconazole-resistant clinical isolate) + fluconazole, 48 h | growth inhibition, % (test concentration not listed) | 0.57% of 300,000 active | AID 1979, 2009;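 active = most replicates above 75%; inconclusive = exactly half above 75%; inactive = most below 75%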;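 also: all wells also contain fluconazole at 8 µg/ml as a sub-toxic cotreatment; 0% = median of DMSO wells and 100% = median of geldanamycin control wells; wells of about 8 µL received 7.5 nL stock; the first replicate is given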
# Ecoli rRNA inh OD600: recorded beside Ecoli rRNA inh, whose call it bears; OD600 change, %; measured here: OD600 growth;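 optical density of the mix in the first replicate; 0 = DMSO median and -100 = no signal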
# Ecoli rRNA inh RFP: recorded beside Ecoli rRNA inh, whose call it bears; RFP signal change, %; measured here: RFP humanized mutant strains;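 first replicate; 0 = DMSO median and -100 = no signal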
# The depositor's hits bear a star; ? = inconclusive; / = no result given. A portion of the library (hit frequency here may not be typical).
SMILES,Ecoli rRNA inh,Ecoli rRNA inh OD600,Ecoli rRNA inh RFP,ALR inh,Beta apoptosis,T cruzi repl,LANA-H2B inh,Beta2AR agonist,A1 inh,Calb FLC
Cc1nc(NCc2ccc3c(c2)OCO3)c2oc3ccccc3c2n1,/,/,/,-1.4,-12.7,-20.8,2.3,4.6,-1.2,0.6
CN(Cc1ccccc1NS(=O)(=O)c1ccc2ccccc2c1)C1CCCCC1,-20.2,-46.9,8.1,-8.0,-1.0,4.6,-5.7,-3.3,0.5,37.2
Cc1cccc(N2CCN(c3nc(C)cc(C)c3C#N)CC2C)c1 (centres undefined),-2.9,-2.6,8.3,7.8,-2.5,65.2*,-8.7,-2.0,-0.5,90.0*
CCOC(=O)[C@@H]1[C@H]2COc3ccccc3[C@@H]2N2C(=O)N(c3ccc(OC)cc3)C(=O)[C@]12C,-2.8,1.6,-5.8,0.9,/,-20.1,2.5,-0.2,0.3,0.1
CC(C)Cc1nnc(NC(=O)CCC(=O)N2CCN(c3ccc([N+](=O)[O-])cc3)CC2)s1,-5.3,-0.1,2.4,16.7,5.7,13.1,0.7,8.0,2.0,-3.1
Cc1nc2ccccc2n1CCN1CCOCC1,15.9,13.9,-0.7,-4.0,-17.7,-12.0,1.9,4.5,-0.4,24.3
CCCCn1nnnc1SCC(=O)N1CCCC1,/,/,/,/,/,6.5,-4.2,-5.1,0.2,-9.3
O=C(Cn1cnc2c(OCc3ccccc3)ncnc21)N1CCN(c2ccccn2)CC1,11.8,21.9,2.2,/,-4.1,/,-6.1,-11.1,0.0,/
Cc1ccc2nc(-c3ccccc3C)oc(=O)c2c1,-16.6,-25.2,-0.2,0.4,-8.6,1.0,0.3,5.6,-0.8,-3.7
CC1CC(C)CN(c2ccc(NS(=O)(=O)c3ccccc3)cc2C(=O)O)C1 (centres undefined),0.2,7.6,-1.3,1.5,1.1,6.6,0.6,5.8,0.1,25.5
COc1cc2[nH]c(=S)nc(NCc3cccc(Cl)c3)c2cc1OC,-42.2,-62.1,4.0,26.7,3.3,7.6,1.1,-3.9,0.2,-3.5
COC(=O)c1c(NC(=O)c2cccc(S(=O)(=O)N3CCN(C)CC3)c2)sc(C)c1C,-10.0,-9.8,18.9,/,/,41.0,-1.1,7.0,0.2,-1.4
CC(C)CCn1c(=O)c2ccccc2n2c(CN3CCOCC3)nnc12,-1.1,5.0,-9.0,-3.4,0.4,17.8,-0.6,-4.4,-0.5,1.5
COc1ccc(/C=C2\SC(=O)N(CC(=O)Nc3cccnc3)C2=O)cc1OC,-4.9,0.2,-1.4,-9.9,-0.9,37.2,-0.1,-2.6,0.1,-4.6
Cc1ccc(OCCN(C)C(=O)c2cc(COc3ccc(F)cc3F)on2)cc1,-23.2,-21.2,-1.1,-4.9,/,-1.8,172.8*,-2.7,-0.5,0.9
CC(=O)NC1C(c2nc3ccccc3s2)=C(c2ccccc2)C(=O)N1c1ccc(C)cc1 (centres undefined),/,/,/,-15.0,6.6,32.5,-0.5,-6.8,/,-6.1
Cc1ccc(S(=O)(=O)NCCCCCC(=O)N(C)C)cc1,/,/,/,/,-6.4,-0.4,10.3,2.2,1.6,-2.6
CC(=O)c1ccc([C@@H]2C[C@]34CN(Cc5cccc(C(F)(F)F)c5)S(=O)(=O)[C@H]3C[C@H]2O4)cc1,/,/,/,-0.9,/,23.5,-0.5,-3.9,0.6,0.0
S=c1nc(-c2ccccc2Cl)[nH][nH]1,10.7,11.3,2.8,99.3*,-2.2,-13.7,0.7,1.4,-0.1,8.8
COc1ccccc1CNS(=O)(=O)c1c(C)[nH]c(=O)[nH]c1=O,12.4,6.1,-4.5,-3.4,/,-23.1,-8.5,12.2,1.2,-4.4
COc1ccc2c(=O)c3ccccc3oc2c1,/,/,/,-2.3,0.9,-5.7,2.9,7.6,-2.6,3.3
O=C(CN1CCN(c2ccccc2O)CC1)Nc1ccc([N+](=O)[O-])cc1Br,23.1,-7.0,-5.9,/,0.3,9.9,0.7,5.5,0.7,21.6
CCn1c(SCC(=O)NCC2CCCO2)nnc1-c1ccccc1OC (centres undefined),5.1,14.9,-3.8,2.4,0.7,/,-1.8,-8.6,-0.3,/
O=C(O)Cn1cc(/C=c2/sc3nc4ccccc4n3c2=O)c2ccccc21,7.8,5.0,-2.5,98.7*,-3.7,-4.5,-4.4,0.0,0.3,-4.0
NC(=O)NC(=O)CSc1nc(-c2ccccc2)c(-c2ccccc2)n1CC1CCCO1 (centres undefined),/,/,/,-1.6,-4.5,?,-0.7,0.6,-0.7,-9.4
Cc1cccc(C(=O)N/C(=C/c2ccco2)C(=O)N2CCCCCC2)c1,-2.7,1.1,9.5,64.0,5.0,31.6,6.5,1.9,0.6,-1.7
O=C(c1nc2ncccn2n1)N1CCc2ccccc2C1,/,/,/,-11.4,-0.8,-6.2,-7.8,-1.1,0.6,-3.6
Cc1nnc(SCC(=O)Nc2ccccc2)n(N)c1=O,16.4,4.6,4.5,/,0.4,-5.3,7.7,-4.8,0.1,8.9
CCOc1ccc(C(=O)N(CN2CCCC2=O)c2cccc(Cl)c2)cc1,11.6,4.6,3.5,-3.2,-4.6,7.3,-0.5,7.0,0.7,11.4
CN(C)C(=O)c1ccc(NC(=O)CN2CCc3cc4c(cc3C2)OCCCO4)cc1,3.0,3.6,-2.2,-1.4,-2.9,-7.6,2.3,-5.6,-0.6,19.7
CCCN(CCC)C(=O)CCS(=O)(=O)c1cccc2nsnc12,/,/,/,/,3.8,1.6,-5.2,-1.8,-0.9,-12.4
CSc1nc(SCC(=O)NCc2ccco2)c2c3c(sc2n1)CN(C)CC3,22.7,7.8,1.9,-10.8,-6.2,48.7,-1.5,0.2,-0.9,-26.4
Cc1nonc1C(=O)N/N=C/c1ccc([N+](=O)[O-])o1,32.4,6.6,8.1,-35.1,-1.9,19.1,-5.5,1.5,-0.9,82.4*
COc1ccc(NC(=O)C2CCN(S(=O)(=O)c3ccc(N4CCCC4=O)cc3)CC2)c(OC)c1,-6.9,5.5,-3.5,-19.1,-6.6,-0.2,3.5,-12.6,0.0,-7.5
CCC(C(=O)NCc1ccncc1)c1ccccc1 (centres undefined),13.3,8.6,0.3,-3.4,3.4,-3.5,-6.2,0.8,0.2,-15.6
CCC1CCCCN1C(=O)COc1cc(=O)n(C)c2ccccc12 (centres undefined),-4.6,-3.2,-2.7,/,2.5,-0.9,-0.5,-29.8,-0.2,-3.4

# 3 of the entries above in order of the Ecoli rRNA inh OD600 value, highest first:
SMILES	Ecoli rRNA inh OD600
CSc1nc(SCC(=O)NCc2ccco2)c2c3c(sc2n1)CN(C)CC3	7.8
Cc1nonc1C(=O)N/N=C/c1ccc([N+](=O)[O-])o1	6.6
CN(C)C(=O)c1ccc(NC(=O)CN2CCc3cc4c(cc3C2)OCCCO4)cc1	3.6

# Later entries.
SMILES,Ecoli rRNA inh,Ecoli rRNA inh OD600,Ecoli rRNA inh RFP,ALR inh,Beta apoptosis,T cruzi repl,LANA-H2B inh,Beta2AR agonist,A1 inh,Calb FLC
Cc1cccc(CCNC(=O)C2CCC(=O)N2Cc2ccc(F)cc2)c1 (centres undefined),-16.8,-2.6,-2.8,6.9,-8.7,4.6,-0.8,-1.6,-0.1,-19.6
COC(=O)CSc1nnc(SCc2ccc(Cl)cc2)s1,/,/,/,-1.2,-2.6,-10.7,2.4,0.5,-1.0,-3.5
CC(C)NC(=O)NS(=O)(=O)c1cnccc1NC1CC2CCC1C2 (centres undefined),/,/,/,/,-9.9,-6.4,4.2,-0.9,-0.3,-7.0
COc1cccc(CNC(=O)CSc2ccc(-c3ccccn3)nn2)c1,-0.5,1.7,-1.1,/,-11.6,-13.5,-1.5,-7.2,1.3,-15.4
Cc1cc(NC(=O)CSc2nnc(-c3ccco3)n2Cc2ccccc2)no1,/,/,/,-1.2,0.2,-8.8,-4.8,-9.3,-0.2,-3.9
Cc1ccc(C(=O)Nc2c(N)nc(SCC(=O)NCC3CCCO3)[nH]c2=O)cc1 (centres undefined),20.9,22.9,4.2,-4.7,-3.5,-9.4,0.9,7.2,-0.5,-3.2
CCn1c(C)c(CS(=O)(=O)c2ccccc2)[nH]c1=O,15.1,17.6,3.5,32.5,-10.6,-13.8,3.0,-7.8,0.1,-9.5
COC(=O)c1cc(OC)c(OC)cc1NC(=S)N1CCCCC1,6.0,2.2,-7.8,-0.4,-4.4,4.1,-0.7,-2.0,-0.5,5.4
Cc1ccccc1Cn1c(O)c(N=NC(=S)Nc2ccccc2F)c2ccccc21,18.7,16.0,-1.8,-7.5,37.2,36.4,6.9,10.0,-0.1,-12.0
C=CC[C@H](CC(=O)NCCO)C(=O)N[C@H](COC(=O)[C@H](CC=C)CC(=O)OC(C)(C)C)c1ccccc1,-5.2,-9.8,0.3,-4.8,2.6,/,5.0,-4.3,1.0,/
Cc1cc(S(=O)(=O)N2CCCC2)ccc1OCC(=O)NCc1ccccn1,11.9,10.2,6.6,-2.0,-5.3,1.2,-3.3,-3.8,0.5,0.6
NC(=O)c1ccccc1OCC(=O)N1CCC(Cc2ccccc2)CC1,/,/,/,-4.0,50.6,/,0.7,-4.4,-0.2,/
Cn1c(SCC(=O)NCc2ccco2)nc2ccccc2c1=O,/,/,/,/,-4.2,-17.2,4.8,-2.3,0.2,7.7
O=C1C(Cc2ccccc2)Nc2ncnc(N3CCc4ccccc4C3)c2N1Cc1ccc(Br)cc1 (centres undefined),/,/,/,5.5,3.4,30.9,3.8,/,-0.9,9.0
CN(C)S(=O)(=O)c1ccc(N2CCCC2)c(C(=O)NCCc2ccc(F)cc2)c1,1.5,-11.1,3.5,-16.3,/,17.0,-1.7,9.3,0.3,3.4
COc1cc(C(=O)NC2CC3CCCC(C2)N3CC(=O)Nc2ccccc2)cc(OC)c1OC (centres undefined),/,/,/,3.2,-3.1,10.1,-2.1,-1.5,-0.6,-4.3
Cc1cc(NC(=O)COC(=O)CCCOc2ccc(Cl)cc2C)no1,/,/,/,1.2,-5.3,4.3,-2.2,-3.2,-0.2,0.6
O=C(NCCc1c[nH]c2ccccc12)c1cc(S(=O)(=O)N2CCCCC2)ccc1N1CCOCC1,/,/,/,-2.5,6.7,3.6,-0.9,-2.2,1.0,0.5
O=C(O)c1ccc(CSCc2ccccc2F)o1,/,/,/,-4.4,3.0,-14.2,0.1,2.2,0.8,26.6
Cc1ccccc1C(=O)NC1CC2CCCC(C1)N2Cc1ccc(Cl)cc1 (centres undefined),4.5,13.3,2.4,/,-1.9,2.1,1.2,-1.3,-0.5,5.7
